CSC inhib: blocks cancer stem cells | cancer stem cell-like cells viability, luminescence | inhibition, % at 7.5 µM | actives 1.1% (n = 300,000);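 active means mean at 75% or more and at least half the replicates too; inconclusive means mean and replicates disagree; tested in HMLE shEcad cells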;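 further: 0% = median of negative and 100% = median of positive control wells; the first replicate is given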
UUG fidelity: alters start codon recognition fidelity in yeast; S. cerevisiae UUG-firefly luciferase reporter, luminescence/redox ratio; activity score, % at 18.7 µM; actives 0.13% (n = 350,000);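 active means replicate mean at a twofold rise or more, about +100% in these data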;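 further: firefly luciferase made from a UUG start codon reports start codon fidelity; reporter light over untreated wells divided by growth signal over untreated wells; some hits fall short of that in this replicate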
PABP FP inh: blocks human PABP binding to poly(A) RNA. actives 1% (n = 290,000). AID 2014. fluorescence polarization. inhibition, % at 35 µM;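 active means 50% or more with normal probe brightness, or confirmed in later tests; inconclusive means above 50% with abnormal brightness, or retests that disagree; inactive means below 50% or failed in later tests; about a fifth of its hits are not listed in these tables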;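 further: calls also rest on retests at 20 µM and on dose response follow-up; controls were probe without protein and protein plus probe with vehicle; some compounds called inactive have numbers as strong as hits; many hits fall short of the cut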
Target sequence (P11940 whole entry, looked up): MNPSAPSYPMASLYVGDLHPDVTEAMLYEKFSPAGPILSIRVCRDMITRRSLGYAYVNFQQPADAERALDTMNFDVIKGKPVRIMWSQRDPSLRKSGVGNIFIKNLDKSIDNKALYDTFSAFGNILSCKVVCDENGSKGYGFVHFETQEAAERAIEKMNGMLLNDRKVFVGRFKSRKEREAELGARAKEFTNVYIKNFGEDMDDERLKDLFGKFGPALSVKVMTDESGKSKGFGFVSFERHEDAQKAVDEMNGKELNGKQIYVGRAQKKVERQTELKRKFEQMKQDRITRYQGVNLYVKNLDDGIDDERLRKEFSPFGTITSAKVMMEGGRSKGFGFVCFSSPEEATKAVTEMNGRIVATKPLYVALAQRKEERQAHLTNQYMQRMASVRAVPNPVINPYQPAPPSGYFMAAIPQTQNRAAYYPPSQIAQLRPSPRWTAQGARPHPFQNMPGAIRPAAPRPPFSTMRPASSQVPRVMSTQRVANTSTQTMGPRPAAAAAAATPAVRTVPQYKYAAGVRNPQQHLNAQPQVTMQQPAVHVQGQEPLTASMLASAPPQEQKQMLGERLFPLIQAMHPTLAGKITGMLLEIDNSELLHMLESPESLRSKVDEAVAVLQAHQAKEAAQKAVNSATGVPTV
HIV Env fusion: HIV envelope-mediated fusion inhibition. AID 651610. inhibition, % at 12.3 µM. HeLa-JRFL Env/CEM21 cell fusion, luciferase. actives 1.1% (n = 360,000);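 active means mean replicate inhibition score of at least 50 and every replicate individually at or above 50; inconclusive means only one of the two criteria met; inactive means mean below 50 and not all replicates reaching 50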;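 further: 0% = plate neutral controls and 100% = maraviroc near 300 nM; one replicate is shown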
MT1-MMP act inh: blocks activation of human MT1-MMP | P50281 | HT1080 RFP-PRO-GFP cells, GFP/RFP ratio fluorescence, overnight; percent of plate control window, DMSO zero | GFP/RFP ratio change, % at 20 µM | actives 0.061% (n = 360,000);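 active means GFP/RFP ratio change of at least 30% with cell ATP level not reduced by more than half and red fluorescence within 50% of control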; further: strong numbers were not always called active
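Assay system: RFP-PRO-GFP reporter HT1080 cells; read-out basis: GFP/RFP fluorescence ratio; benchmarks: DMSO wells and RFP-L50D-GFP cells; doses: 20 µM single dose, 1% DMSO; schedule: overnight cell settling, then overnight compound exposure, 37 °C, 5% CO2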
eIF4H FP inh: inhibitors of RNA binding by human eIF4H; eIF4H fluorescence polarization binding assay; inhibition, % at 35 µM; actives 0.94% (n = 290,000);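 active means 50% or more with normal probe brightness, or confirmed in later tests; inconclusive means above 50% with abnormal brightness, or retests that disagree; inactive means below 50% or failed in later tests; about a fifth of its hits are not listed in these tables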;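 further: calls also rest on retests at 20 µM and on dose response follow-up; 0% = protein and probe with vehicle and 100% = probe without protein; strong numbers were not always called active; many hits fall short of the cut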
Rce1 inhib: yeast Ras-converting enzyme inhibition | AID 2563 | Q03530 | actives 0.27% (n = 290,000) | yeast membranes, quenched prenylated peptide cleavage fluorescence | calls only;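 active means fall in fluorescence gain of 50% or more versus controls, with final raw signal at or below 3038400; inconclusive means same 50% fall but final raw signal above 3038400; inactive means fall in fluorescence gain under 50%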;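 further: plate controls were neutral control wells for no effect and wells lacking membranes for full effect; tested at 10 µM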
Target sequence (Q03530 whole entry, looked up): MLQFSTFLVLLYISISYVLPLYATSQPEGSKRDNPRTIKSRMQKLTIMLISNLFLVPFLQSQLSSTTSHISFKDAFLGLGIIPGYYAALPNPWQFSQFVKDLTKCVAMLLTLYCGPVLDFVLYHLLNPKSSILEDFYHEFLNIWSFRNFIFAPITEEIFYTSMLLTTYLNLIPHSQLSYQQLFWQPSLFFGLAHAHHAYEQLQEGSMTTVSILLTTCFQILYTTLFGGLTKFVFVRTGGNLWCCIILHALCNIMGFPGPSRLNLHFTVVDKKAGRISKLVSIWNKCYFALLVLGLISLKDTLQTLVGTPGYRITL
eIF4H FP inh retest: also measured in eIF4H FP inh; calls as there; inhibition, %; compound at 20 µM; confirmation average;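 mean of two retest wells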
PABP FP inh retest: also measured in PABP FP inh; calls as there; inhibition, %; compound at 20 µM; confirmation repeats;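 mean of two retest wells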
MT1-MMP act inh RFP: also measured in MT1-MMP act inh; calls as there; RFP signal change, %; measured here: RFP expression control read;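 0 = vehicle wells; hits needed this value within 50% of zero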
Active calls of the source: *; i = inactive; ? = inconclusive; / = not tested or not shown.

SMILES	CSC inhib	UUG fidelity	PABP FP inh	HIV Env fusion	MT1-MMP act inh	MT1-MMP act inh RFP	eIF4H FP inh	Rce1 inhib	others
Cc1ccc(C)c2c1cc(C)c1nnc(SCC(=O)N3CCCc4ccccc43)n12	-10	-11	8	-8	-3	-4	6	i
CCc1cccc(CC)c1NC(=O)C[n+]1cccc(C(N)=O)c1	0	/	3	5	0	0	-4	i
COCCNC(=O)c1cc2c(c(-c3cccc(C#Cc4ccc(OC)c(OC)c4)c3)n1)[C@H](CCO)N(S(=O)C(C)(C)C)C2 (stereo not given in full)	/	3	/	-1	0	1	/	/
Cc1ccc(S(=O)(=O)N2[C@@H](c3ccccc3)C(C(=O)O)=CC[C@H]2c2ccc3c(c2)OCO3)cc1	-6	-12	/	-20	1	3	/	/
CCOc1ccccc1N1CCN(C(=O)c2cccc(-c3ccc(O)cc3)c2)CC1	33	-6	-13	16	/	/	-5	i
Cc1cccc(C)c1OCCNC(=O)c1ccc2ccccc2n1	11	-1	-7	7	3	-1	4	i
Cc1ccc(S(=O)(=O)N(C)c2ccc(C(=O)N3CCCCC3)cc2)cc1	25	4	-3	?	6	-7	-3	i
COc1ccc(CN(C)C(=O)C2CCN(C(=O)Nc3ccccc3)CC2)cc1	-8	/	/	0	4	3	/	i
COc1cc(C(Nc2ccccn2)c2c(NC(=O)c3ccco3)sc(C)c2C)cc(OC)c1OC (stereo not given)	-4	-9	-2	20	-9	-6	-6	i
CC(NC(=O)Nc1ccccc1)C(c1cccs1)N1CCOCC1 (stereo not given)	-3	-21	-6	-121	0	5	-1	i
O=C(O)c1ccc(/C=N/Nc2ncc(C(F)(F)F)cc2Cl)cc1	-4	/	4	2	0	2	-5	i
Cc1ccc(NC(=O)CSc2nnnn2-c2cccnc2)c(C)c1	-3	-7	3	1	-1	0	-5	i
COc1ccc(C(=O)Nc2ccc3c(c2)OCO3)cc1S(=O)(=O)N1CCOCC1	/	-11	/	15	0	-1	/	/
COc1ccc(C(=O)C2CCCN(C(=O)C3=CCCC3)C2)c(C)c1 (stereo not given)	-3	-13	4	3	0	-3	-10	i
Nc1ccccc1S(=O)(=O)C(F)F	-15	/	-3	9	0	0	-1	i
O=C(NC1CCCCC1)c1ccc(CS(=O)Cc2ccccc2Cl)o1 (stereo not given)	-5	-3	-1	-2	4	0	-13	i
Cc1cc(C)n2ncc(C(=O)NCc3cccnc3)c2n1	2	2	3	/	0	0	3	i
O=C1OC(CN2CCOCC2)CN1N=Cc1ccc([N+](=O)[O-])o1 (stereo not given)	4	-13	/	-144	-2	1	/	/
O=C(c1[nH]c(C(F)(F)F)nc1-c1ccccc1)N1CCC(Cc2ccccc2)CC1	/	-5	/	4	2	-7	/	/
CCOC(=O)C1(Cc2ccccc2)CCN(Cc2cnn(C(C)C)c2)CC1	-12	11	14	-12	-3	0	13	i
Cc1ccccc1C(=O)c1c[nH]c(C(=O)NCCc2ccccn2)c1	-2	14	-4	26	3	-2	-2	i
O=C(O)CC(CC(=O)O)c1ccsc1	-10	3	/	18	-2	1	/	/
COc1cc(C(=O)Nc2ccc3c(c2)C(=O)N(CCC(=O)O)C3=O)cc(OC)c1OC	-5	-4	9	/	5	4	0	i
CN(C1CCS(=O)(=O)C1)S(=O)(=O)c1ccccc1 (stereo not given)	-8	-22	-7	10	1	4	-1	i
COc1c(C)cc(S(=O)(=O)NCCN2CCOCC2)c(C)c1C	-13	-10	-4	11	1	4	-2	i
Other compounds follow.
SMILES	CSC inhib	UUG fidelity	PABP FP inh	HIV Env fusion	MT1-MMP act inh	MT1-MMP act inh RFP	eIF4H FP inh	Rce1 inhib	others
O=C(O)c1cc(NCc2ccccc2)ccc1N1CCOCC1	-5	0	1	/	0	4	-5	i
Cc1nn(C)cc1/C=N/NC(=O)c1ccco1	-2	-21	0	-15	1	4	-5	i
Cc1ccccc1NC(=O)Cn1cccc1	-6	-8	-6	/	5	-2	3	i
Cc1ccnc(NC(=O)c2ccc(Cl)cc2Cl)n1	-5	/	11	18	/	/	-23	i
CC(=O)c1ccc(NC(=S)N(C)C2CCN(C)CC2)cc1	12	-21	-14	3	-2	-3	-2	i
COC(=O)c1ccc(N2C(=O)CC(N3CCOCC3)C2=O)cc1 (stereo not given)	-11	15	-10	/	6	5	-2	/
CC(C)N(C)c1ncnc2c1ncn2[C@H]1CN(Cc2ccc(-c3ccccc3)cc2)C[C@@H](CO)O1	/	-7	/	-2	-5	-16	/	/
Cc1ccc(/C=N/NC(=O)c2c[nH]c3ccccc23)s1	2	-17	-2	/	6	7	-5	i
Cc1ccc(CNCC(=O)Nc2ccc(C)cc2Br)cc1	15	/	-2	-56	-4	-2	2	i
O=C(Nc1ccccc1O)c1ccc2c(c1)C(=O)N(Cc1ccco1)C2=O	-12	5	-5	-8	-4	-4	-4	i
C1CCN=C(NC23CC4CC(CC(C4)C2)C3)CC1	1	/	5	/	/	/	11	i
O=C(N/N=C\c1c(F)c(F)c(F)c(F)c1F)c1ccc(-c2ccccc2)cc1	2	-14	3	4	-5	-2	-3	i
O=C(N/N=C/c1ccc(F)cc1)c1cc(-c2ccc3c(c2)OCO3)n[nH]1	25	-8	-14	-202	-3	-1	-2	i
COc1cccc(-n2c(=O)c3c(C)c(C(=O)N(C)C)sc3n(CC(=O)NCC3CCCO3)c2=O)c1 (stereo not given)	-12	-10	16	-4	-2	1	-3	/
COC(=O)C1=C(N)Oc2c(oc(CO)cc2=O)C1c1c(F)cccc1Cl (stereo not given)	-8	/	3	7	2	4	-5	/
CN(Cc1ccccc1)C(=O)COc1cc(=O)n(C)c2ccccc12	-1	-12	-8	-112	10	21	3	i
C/C(=N/NC(=O)CNC(=O)Cc1ccccc1)c1ccc(Cl)cc1	-3	-4	32	-3	2	0	41	i
O=C(CN(Cc1ccccc1)S(=O)(=O)c1ccc(F)cc1)NCCC1=CCCCC1	7	-12	0	109*	-2	-5	-11	i
Cc1ccc(S(=O)(=O)N2CCC(C(=O)N/N=C/c3cccnc3)CC2)cc1	-3	-21	10	16	0	4	3	i
COCCCN1C(=O)c2ccc(C(=O)N3CCN(c4ccc(OC)cc4)CC3)cc2C1=O	-11	-10	2	-1	1	3	4	i
O=c1cc(N=Nc2ccc(Cl)cc2)[nH]c(=O)[nH]1	116*	-17	12	-7	5	1	6	i
COc1cccc(C(=O)C2CCCN(C(=O)CCC3=NNC(=O)CC3)C2)c1 (stereo not given)	-9	/	1	-136	1	7	-1	i
O=C1CC(Sc2ncccn2)C(=O)N1c1ccccc1 (stereo not given)	17	-11	-4	-70	0	2	60	i	eIF4H FP inh retest=6;PABP FP inh retest=2
Cc1ccc(NC(=O)CSCC(=O)Nc2cccc(S(=O)(=O)N3CCCCCC3)c2)cc1	-2	-11	/	34	2	-6	/	/
Cc1ccc(C(CNS(=O)(=O)c2ccc(F)cc2C)N2CCN(C)CC2)cc1 (stereo not given)	5	/	/	-8	-4	3	/	i
Further compounds:
SMILES	CSC inhib	UUG fidelity	PABP FP inh	HIV Env fusion	MT1-MMP act inh	MT1-MMP act inh RFP	eIF4H FP inh	Rce1 inhib	others
Cc1ccc(-c2cc(C(=O)N3CC4(C)CC3CC(C)(C)C4)no2)cc1 (stereo not given)	34	-9	7	/	-8	-6	-5	i
O=C(O)CN1C(=O)/C(=C\c2ccccc2OCc2ccc(F)cc2)SC1=S	22	-18	37	8	-3	-2	18	i
COc1ccccc1NC(=S)NNC(=O)c1ccccc1	-3	-22	/	-74	1	3	/	i
COc1cc(C(=O)NCCN2CCCC2)cc(OC)c1OC	-13	4	-10	/	0	1	0	i
CC1(CC(=O)N/N=C/c2cc3c(cc2Br)OCO3)OCCO1	-4	/	21	-12	0	0	-3	i
CC(C)CCNC(=O)CCCCn1c(=O)[nH]c2ccsc2c1=O	-6	/	2	-38	3	1	-5	i
COc1ccc(COc2ccccc2C(=O)Nc2ccccn2)cc1[N+](=O)[O-]	-10	-14	-4	/	13	10	27	i
C[C@@H]1C(=O)O[C@H](C)[C@H]1C[C@@H](O)[C@](C)(O)C1CC[C@@]2(O)C3=CC(=O)[C@@H]4C[C@@H](O)[C@@H](O)C[C@]4(C)C3CC[C@]12C (stereo not given in full)	-10	6	/	-39	-1	0	/	/
O=C(NC(NCCCN1CCOCC1)(C(F)(F)F)C(F)(F)F)C1CCCCC1	-6	-16	-2	/	10	6	0	i
Nc1ccc(-c2nc3ccc(N)cc3o2)cc1	-3	-28	-7	-148	-1	3	2	?
CCCCCCn1cnc2c(oc3nc4c(cc32)CCCC4)c1=O	1	-5	0	-21	3	-1	-3	/
CCCCOC(=O)C1[C@H]2C(=O)N(c3ccccc3CC)C[C@]23C=C[C@H]1O3 (stereo not given in full)	/	9	3	/	9	2	-13	i
CCC(C)(C)NC(=O)C(C(C)C)N(CC1CCCO1)C(=O)CNS(=O)(=O)c1ccccc1 (stereo not given)	-4	-23	-1	1	0	0	-1	i
CCC1=C(c2ccc(C)cc2)S(=O)(=O)N=C1N1CCC(C(=O)NCCCN2CCCCC2)CC1	-4	-6	-4	-5	-1	1	-2	i
CCN(CC)CCNC(=O)Cn1c(=O)c2cccn2c2ccc(F)cc21	-9	-4	2	1	-1	0	-8	i
COc1ccccc1Nc1nc(N)nc(CSC(=S)N2CCCCC2C)n1 (stereo not given)	16	-19	-1	16	-4	1	-4	i
Cc1c(C(=O)Nc2ccccn2)oc2c(Cl)cccc12	15	/	/	-24	1	-1	/	i
CCc1nc2c(OCCOc3ccc(F)cc3)cccn2c1N(C)C(=O)CC(C)C	/	-17	/	52	-4	-5	/	/
Cn1c(C(=O)NCCN2CCc3ccccc3C2)cc2c(=O)[nH]c3ccccc3c21	-24	/	5	-33	6	-1	0	i
CCn1c(=O)cc(C(=O)OC)sc1=Nc1ccc(F)c(F)c1	11	-11	-9	10	1	-15	-8	i
Cc1nc(SCc2ccccc2F)c2oc3ccccc3c2n1	13	-11	-7	-1	3	-1	-5	i
CN(Cc1c(F)cccc1Cl)c1nnnn1-c1ccccc1	-10	0	-3	-53	-4	-2	-9	/
CCCS(=O)(=O)c1nc(S(=O)(=O)c2ccc(C)cc2)c(NCc2ccccn2)s1	-15	/	5	10	-3	-5	0	i
Cc1[nH]nc(SCC(=O)N2CCCCCC2)c1[N+](=O)[O-]	-8	-24	-12	-47	0	-2	-1	i
CC1CCCN(C(=O)CN2C(=O)CSc3ccc(S(=O)(=O)N4CCOCC4)cc32)C1 (stereo not given)	-7	-18	/	-1	0	1	/	i
(cont.)
SMILES	CSC inhib	UUG fidelity	PABP FP inh	HIV Env fusion	MT1-MMP act inh	MT1-MMP act inh RFP	eIF4H FP inh	Rce1 inhib	others
O=c1cc(-c2ccccc2)nc(Sc2ccc([N+](=O)[O-])cc2[N+](=O)[O-])[nH]1	51	-18	/	-118	3	-2	/	i
COc1ccc(CCn2c(C)nc3c(c(=O)c4ccccc4n3C)c2=O)cc1	-2	7	14	-13	0	4	2	i
Cn1c(C(=O)NCCN2CCOCC2)cc2c(=O)n(C)c3ccccc3c21	/	-23	-12	-1	10	2	3	i
COc1ccc(C(NC(=O)C2CCN(Cc3ccc(Oc4ccccc4)cc3)CC2)c2ccccc2C)cn1 (stereo not given)	/	-19	/	-4	-1	-12	/	/
CCN(Cc1nc(-c2ccc(OC)c(OC)c2)no1)C(=O)c1ccc2c(c1)OCO2	-9	-5	9	15	4	5	2	i
Cc1ccc(S(=O)(=O)N2CCN(c3ccccc3)CC2)c(C)c1	3	3	-1	15	0	-5	-7	i

Only part of the results is shown; count on the stated rates, not on these rows.
